Source: PubChem BioAssay (Fisher Drug Discovery Resource Center)
NPYLR7 ag = activates Aedes aegypti NPYLR7 receptor; HEK293T NPYLR7/Galpha15, GCaMP6s calcium fluorescence; activation, % at 10 µM; 270,000 tested, 0.15% active; AID 1259423; in the data active means activation above about 40%;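 further: 0% = vehicle and 100% = reference agonist at the receptor; some compounds past the cut are filed as inactive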
NPYLR7 ag max-min = second read-out of NPYLR7 ag, no call of its own (marks repeat the call); activation, %; measured here: Max-Min RFU normalised activation; some inactives read as strong as hits;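 span of the calcium signal over five minutes; 0% = vehicle and 100% = native peptide agonist; compound fluorescence can raise it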
* = called active by the depositor; & = joins results of further samples. Only part of the results is shown, so the mix of outcomes need not match the whole.

entry	canonical_smiles	NPYLR7 ag max-min	NPYLR7 ag
1	Cn1c(=O)[nH]c(=O)c2c1nc(CN1CCN(c3ccc(F)cc3)CC1)n2CCN1CCOCC1	3	9
2	Fc1ccc(C2CC(c3cccs3)=Nc3nnnn32)cc1 (centres undefined)	38	45
3	CCn1cc(Cn2cnc(-c3ccccc3)c2-c2ccc(C(C)=O)cc2)cn1	-2	-2
4	Cc1cn2c3c(=O)n(CC(N)=O)c(=O)n(C)c3nc2n1CC1CCCO1 (centres undefined)	-2	1
5	CS(=O)(=O)c1ccc(NC2CCCCC2)c(S(C)(=O)=O)c1	4	6
6	Cc1cc(F)ccc1NC(=O)CNS(=O)(=O)NCc1ccccc1	12	14
7	CCOC(=O)c1cnc(-c2ccc(OC)cc2)nc1NC(C)CCCN(CC)CC (centres undefined)	-12	-7
8	c1ccc(-c2nn3c(Cn4nnc5ccccc54)nnc3s2)cc1	5	14
9	CCOc1ccc(-c2ccc(OCCNS(=O)(=O)c3ccccc3)nn2)cc1	-7	-7
10	CC(C(=O)N1CCc2ccccc21)N1CCC(C(=O)Nc2ccccc2)CC1 (centres undefined)	0	2
11	CC1CCN(S(=O)(=O)NCc2cc(-c3ccccc3)on2)CC1	6	6
12	CN(C(=O)C1C2CC3CC(C2)CC1C3)C1(C)CCS(=O)(=O)C1 (centres undefined)	4	2
13	O=C(NC1CC1)[C@@]1(OCc2ccccc2F)CC(OCc2ccc(C(F)(F)F)cc2)[C@H](O)[C@H](O)C1 (some centres undefined)	32	27
14	CCOC(=O)c1nn(-c2ccccc2)c(=O)cc1OS(=O)(=O)c1cc(C)c(Cl)cc1C	1	-2
15	O=C(CN1CSCC1=O)Nc1ccnn1Cc1cccs1	11	4
16	CCOC(=O)CCC(=O)N(CC(=O)N(CCc1c[nH]c2ccccc12)Cc1ccc(C(F)(F)F)cc1)C(C)C	21	11
17	CCn1cc(/C=C/c2ccccc2)c(C)n1	-6	-5
18	CCc1nn2c(=O)cc(CNc3ccccc3C(=O)NC3CC3)nc2s1	2	6
19	CCOC(=O)C(Cc1ccc(Cl)cc1)NC(=O)c1ccc(-n2nc(-c3cccc(C(F)(F)F)c3)cc2N)cc1 (centres undefined)	-10	-7
20	COc1ccc(N2CCN(c3cc(C)nc(SCc4ccc(C(=O)Nc5ccc(F)cc5)o4)n3)CC2)cc1	12	3
21	CCC(NC(=O)c1ccc(F)cc1F)c1ccccc1OCC(=O)N(C)C (centres undefined)	0	2
22	CC(C)Nc1ncccc1C(=O)N1CCC[C@H]1C(=O)OCc1ccccc1	-21	-11
23	CCc1cc(CNC(=O)N2CCCC(C)(C)CC2)on1	5&-24	8&-23
24	Cc1cc(C)n2c(SCC(=O)NCCOc3ccccc3)nnc2n1	3	11
25	Cc1ccc(CCC(=O)NCCc2n[nH]c(C)n2)c(C)c1	31	-3
26	OCCN1CCC(Cn2ccnc2C2CC=CCC2)CC1 (centres undefined)	9	12
27	O=C(NCc1ccccc1)c1ccc2[nH]c3c(c2c1)CCCC3	-7	-6
28	O=S(=O)(C=C(c1ccccc1)c1ccccc1)c1ccccc1	-1	6
29	Cc1nc2c(C(N)=O)cnn2c(C)c1CCC(=O)Nc1cc(F)ccc1F	2	-1
30	Cc1ccc2sc(N(CCCN3CCOCC3)C(=O)c3cc(Cl)sc3Cl)nc2c1C	-6	0
31	O=C(Cc1ccccc1)N(Cc1c(-c2ccccc2)noc1N1CCSCC1)C1CC1	11	7
32	CCOC(=O)C1CCCN(C(=O)c2cccc(CSc3nc(-c4ccccc4)cc(N(C)CCc4ccc(OC)c(OC)c4)n3)c2)C1 (centres undefined)	14	13
33	CC(C)=C(NC(=O)c1ccccc1)C(=O)NN=C1CCN(Cc2ccccc2)CC1	-13	-5
34	COc1ccc(C2SCC(=O)N(CC(=O)N3CCOCC3)c3c2c(-c2ccccc2)nn3-c2ccc(F)cc2)cc1OC (centres undefined)	16	14
35	CCC1=NOC(CNC(=O)Cc2c(C)nn(-c3ccccc3)c2C)C1 (centres undefined)	14	11
36	Cc1cc(Oc2ccc(F)cc2F)nc(SCc2ccc(C(C)(C)C)cc2)n1	17	22

Fetched by compound from above (two):
entry	canonical_smiles	NPYLR7 ag max-min	NPYLR7 ag
27	O=C(NCc1ccccc1)c1ccc2[nH]c3c(c2c1)CCCC3	-7	-6
32	CCOC(=O)C1CCCN(C(=O)c2cccc(CSc3nc(-c4ccccc4)cc(N(C)CCc4ccc(OC)c(OC)c4)n3)c2)C1 (centres undefined)	14	13

(next part)
entry	canonical_smiles	NPYLR7 ag max-min	NPYLR7 ag
37	COc1ccc(C2c3ccsc3CCN2C(=O)CN(CC(C)C)S(=O)(=O)c2ccc(NC(C)=O)cc2)cc1 (centres undefined)	9	-4
38	COc1ccc(C(=O)NC2CCN(Cc3ccccc3)CC2)cc1F	4	5
39	CCCCc1ccc(NC(=O)c2cccn(OCc3cccc(Cl)c3)c2=O)cc1	17	14
40	Clc1ccc(C2(NCCCn3cncn3)CCC2)cc1	5	9
41	CCCCCCCC(=O)Nc1c(-c2ccccc2C)nc2ccc(C)cn12	-3	-2
42	CC(C)C1CN(C(=O)Cn2cnc3ccccc3c2=O)CCCN1CC1CC1 (centres undefined)	9	10
43	NC(=O)c1c(Cl)cccc1NC(=O)c1ccc(Cl)cn1	-31	-32
44	CCOc1cccc(/C=N\NC(=O)CSc2nnc(-c3ccccc3)n2-c2ccccc2)c1O	-7	0
45	CCCN(Cc1ccc(C)o1)Cc1ccc(C(O)(c2ccc(OC)cc2)c2ccc(OC)cc2)o1	5	-2
46	CC(C)Cc1c(C#N)c(SCC(=O)c2ccc(Cl)cc2)nc2c1CCCC2	-6	-4
47	CN(CC1CCN(CCc2ccc(Cl)cc2)CC1)C(=O)c1cccc(N(C)C)c1	4	9
48	Cc1cc(C)nc(NN=Cc2ccc(C3C=CCC3)s2)n1 (centres undefined)	9	3
49	COc1ccc(-c2cnnc(N3CCCC3c3ccccn3)n2)cc1 (centres undefined)	-6	-6
50	Cc1cccc2cc(CN3C[C@H](OC(C)C)[C@@H](O)C3)c(=O)[nH]c12	5	7
51	C=CCn1c2ccccc2n2c(C(=O)OC)c(C)nc12	-16	-10
52	C=CCOC(=O)/C(=C\c1ccc2c(c1)OCO2)NC(=O)c1ccccc1OC	7	2
53	CCCc1cn(C2CCN(C3CCN(Cc4ccccc4)CC3)CC2)nn1	-9	-1
54	C(=C\c1ccco1)/CN1CCCCC1CCN1CCOCC1 (centres undefined)	-2	-3
55	CCC(O[N+](=O)[O-])c1cc2c(cc1[N+](=O)[O-])OCCO2 (centres undefined)	0	5
56	OC(COc1ccccc1)CN(Cc1ccccc1)CC1CC(c2ccc(Cl)cc2)=NO1 (centres undefined)	0	-1
57	C#CCn1c(-c2cccc(Br)c2)nc2ccccc21	7	6
58	Cc1nn(-c2ccccc2)c(Cl)c1CN1C(=O)NC2(CCCC2)C1=O	4	4
59	Fc1cccc(F)c1-c1cc(-c2ccccc2)c2ccccc2n1	3	8
60	Cc1ncc(C[n+]2csc(CCOC(=O)C3CC4CCC3C4)c2C)c(N)n1 (centres undefined)	-1	0

Copied from the list.
For NPYLR7 ag, C(=C\c1ccco1)/CN1CCCCC1CCN1CCOCC1 (centres undefined) shows -3
For NPYLR7 ag, Cc1nn(-c2ccccc2)c(Cl)c1CN1C(=O)NC2(CCCC2)C1=O shows 4
For NPYLR7 ag max-min, Fc1cccc(F)c1-c1cc(-c2ccccc2)c2ccccc2n1 shows 3
For NPYLR7 ag max-min, Cc1cccc2cc(CN3C[C@H](OC(C)C)[C@@H](O)C3)c(=O)[nH]c12 shows 5
For NPYLR7 ag, Cc1ncc(C[n+]2csc(CCOC(=O)C3CC4CCC3C4)c2C)c(N)n1 (centres undefined) shows 0

The list continues:
entry	canonical_smiles	NPYLR7 ag max-min	NPYLR7 ag
61	CCOC(=O)c1cccc(NC(=O)N2CCC(Cc3ccc4c(c3)OCO4)CC2)c1	10	0
62	COc1ccc(C2CC(c3ccc4ccccc4c3)=NN2C(=O)CCl)cc1 (centres undefined)	-4	-2
63	C=CCCCCCCCCC(=O)N1CCN(Cc2cc(=O)c(OCc3ccc(F)cc3)co2)CC1	9	23
64	CC(=O)Nc1cc(C(=O)C(C#N)c2nc(C(C)C)cs2)ccc1F (centres undefined)	-3	11
65	CN(C(=O)CSc1nnc(Cc2cccs2)n1C1CC1)C1CCS(=O)(=O)C1 (centres undefined)	7	0
66	CC12CC3CC(C)(C1)CC(C(=O)NCCCN1CCC(C(N)=O)CC1)(C3)C2	8	13
67	Cc1nnc(N2C(=O)C(=O)C(=C(O)c3ccc(OC(C)C)cc3)C2c2ccc(Cl)cc2)s1 (centres undefined)	27	19
68	CCCCOc1ccc(C(=O)NCc2nnc(SCc3cccc(C)c3)n2-c2cc(Cl)ccc2Cl)cc1	18	22
69	Cc1cc(C)n(CCNC(=O)c2ccccc2OC2CCN(S(C)(=O)=O)CC2)n1	7	11
70	Cc1cc(C)c2nc(N=C(NC(=O)c3ccccc3)NC(=O)c3ccccc3)nc(C)c2c1	-11	-4
71	CC1=NC2=C(C(=O)CC(c3ccccc3)C2)C(c2ccc(Br)cc2)C1C(=O)OC1CCCCC1 (centres undefined)	-8	-7
72	CCCCCCCC(=O)N1CCN(c2cc(Cl)nc(SCC(=O)NCCN3CCCC3)n2)CC1C (centres undefined)	1	-4
73	Cc1cnc(N2CCCC(N(C)C)C2)nc1N1CCCC(N(C)C)C1 (centres undefined)	1	1
74	Cc1sc(NC(=O)C2CC2)nc1-c1ccc(F)c(F)c1	1	9
75	C#CCN1CCCCC1C(=O)Nc1cc2c(cc1Cl)NC(=O)CO2 (centres undefined)	-3	-2
76	CC(=O)NCc1ccc(-c2nc(C3CC3)sc2C)s1	-3	-1
77	NC(=O)CSc1nccn(-c2ccc(F)c(Cl)c2)c1=O	-2	-3
78	O=C(c1ccccc1Nc1ccc(F)cc1)N1CCOCC1	0	1
79	Cc1nc2sccn2c(=O)c1NC(=O)CC1CCCCC1	-2	7
80	CCC(C)NCc1ccccc1-c1cccc(O)c1 (centres undefined)	4	-4
81	CC(CCc1ccc(O)cc1)NCC(O)c1ccc(O)cc1 (centres undefined)	-4	-7
82	c1cc(CNC23CC4CC(CC(C4)C2)C3)ccn1	5	4
83	COCC(=O)Nc1ccc(N2CCN(C(=O)c3ccoc3)CC2)nc1	0	-3
84	CCc1c(C)nn(CC(=O)N2CCCC3(CN(C)C(=O)O3)C2)c1C (centres undefined)	-1	2

A different layout for part of the listing above.
#74 Cc1sc(NC(=O)C2CC2)nc1-c1ccc(F)c(F)c1
#75 C#CCN1CCCCC1C(=O)Nc1cc2c(cc1Cl)NC(=O)CO2 (centres undefined)
#76 CC(=O)NCc1ccc(-c2nc(C3CC3)sc2C)s1
#77 NC(=O)CSc1nccn(-c2ccc(F)c(Cl)c2)c1=O
#78 O=C(c1ccccc1Nc1ccc(F)cc1)N1CCOCC1

entry no.,74,75,76,77,78
NPYLR7 ag max-min,1,-3,-3,-2,0
NPYLR7 ag,9,-2,-1,-3,1

Additional results.
entry	canonical_smiles	NPYLR7 ag max-min	NPYLR7 ag
85	CN1CCN(Cc2noc(CCc3nc(Cl)n[nH]3)n2)CC1	1	13
86	N#Cc1ccc(OCC(=O)N2CCN(C(=O)CN3CCOCC3)CC2)cc1	1	11
87	COc1ccc(-n2nnc(C(=O)OCc3cccc(C)c3)c2C)cc1	-12	-6
88	CC(Sc1nc2ccccc2c(=O)n1C1CC1)C(=O)N1CCCC1 (centres undefined)	14	-3
89	COc1cccc(C2c3c(oc4cc(OC)ccc4c3=O)C(=O)N2c2nccs2)c1 (centres undefined)	4	6
90	CN(Cc1ccc(F)cc1F)S(=O)(=O)c1ccc(F)c(Cl)c1	2	3
91	CCC(=O)NCc1nnnn1C1CCCCC1	8	13
92	CC1CN(c2cc(Oc3ccc(Cl)cc3F)ncn2)CCN1C(=O)c1cccs1 (centres undefined)	14	11
93	CSc1cccc(-n2nnc(C(=O)OCc3nc(-c4ccccc4)oc3C)c2C)c1	-5	0
94	CCn1c(=O)n(CC(O)CN2CCC(C)CC2)c2ccccc21 (centres undefined)	3&5	7&11
95	COc1ccc(Cn2c(COc3ccccc3)n[nH]c2=S)cc1	-11	-5
96	O=C1Cc2cc(-c3csc(N4CCSCC4)n3)cc3c2N1CCC3	-7	-5
97	COc1ccc2c(c1)C(CN1CCN(CC(=O)O)CC1)=CC(C)(C)CO2	16	4
98	COC1=CC(C)[C@@H]2C[C@H]3OC(=O)C[C@H]4C(C)=C(OC)C(=O)C([C@@]34C)[C@@]2(C)C1=O (some centres undefined)	-8	-7
99	CC(C)CCNC(=O)[C@H](CC(C)C)NC(=O)[C@H]1O[C@@H]1C(=O)O	-9	-3
100	Cc1nnc(SC(C(=O)NC2CC2)c2ccc(F)cc2)n1-c1ccccc1 (centres undefined)	3	2
101	OCCN(Cc1ccncc1)Cc1cc(Br)ccc1F	2	3
102	COc1cccc2cc(-c3nc4ccccc4[nH]3)c(=Nc3sc4c(c3C(N)=O)CCCC4)oc12	-9	-5
103	CC1SC(c2ccc(F)cc2F)N(CCC(=O)NC2CC2)C1=O (centres undefined)	35	21
104	COC(=O)[C@@H]1C[C@@H](N(C)C)CN1C(=O)c1ccccc1-c1ncc[nH]1	3	4
105	CCOC(=O)c1nn(-c2ccc(C)cc2)c(=O)c2c(NC(=O)c3cccc([N+](=O)[O-])c3)scc12	1	5
106	COCCn1cncc1CO	4	5
107	CC(=O)Nc1cc(C(=O)N2CCN(c3ccccc3)CC2C)cc2ncn(CCc3ccccn3)c12 (centres undefined)	1	5
108	CCCNC(=O)C1(C)CCCN(CC(=O)c2ccc3c(c2)OCCO3)C1 (centres undefined)	0	1
109	Cc1c(C(=O)NCc2ccccc2C(F)(F)F)sc(=O)n1CC(=O)N(C)C	-6	-5
